Source: PubChem
AmpC nodet inh: Promiscuous and Specific Inhibitors of AmpC Beta-Lactamase (assay without detergent). 71,000 tested, 1.8% active. Potency, µM (titrated, usually from 28.7 µM), for the others: at the top dose activity change, negative = inhibition. P00811. AmpC nitrocefin hydrolysis, absorbance 480 nm, no detergent; potencies from a single point are estimates. AID 585, 2007; active = falling curve, for most hits resting on a single point; inconclusive = weak or doubtful change; inactive = flat or rising curve; note: % of control where 0% means no effect; about half of the hits show no inhibition at the top dose; a quarter of the inactives give rising signals
Target sequence (P00811 whole entry, looked up): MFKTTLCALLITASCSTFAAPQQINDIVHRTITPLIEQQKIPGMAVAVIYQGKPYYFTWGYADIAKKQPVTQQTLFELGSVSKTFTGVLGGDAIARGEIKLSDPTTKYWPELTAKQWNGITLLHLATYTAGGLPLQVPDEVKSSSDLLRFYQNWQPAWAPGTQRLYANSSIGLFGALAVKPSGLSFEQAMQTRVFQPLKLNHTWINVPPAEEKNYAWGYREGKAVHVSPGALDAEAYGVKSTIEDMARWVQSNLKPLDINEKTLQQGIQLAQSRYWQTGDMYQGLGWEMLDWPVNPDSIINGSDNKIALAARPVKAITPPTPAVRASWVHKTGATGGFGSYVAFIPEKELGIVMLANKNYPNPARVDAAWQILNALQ
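Enzyme, pH 7.0 phosphate. Compound titrations were pre-incubated with AmpC for 15 min at room temperature before nitrocefin (stock 800 uM) addition; product formation was recorded at 480 nm every 20 s for 4 min.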
Active calls of the source: *; ? = inconclusive; [ ] = dose if it differs, or a comment. Potency is the fitted concentration of half-maximal effect.

smiles | AmpC nodet inh
CN(C)S(=O)(=O)N1CCN(c2ccc(Cl)cc2)CC1 | 2%
Cc1cnc(C(=O)OCC(=O)Nc2ccc(Oc3ccccc3)cc2)cn1 | 17%
COCC(=O)N(Cc1ccccc1)c1ccccn1 | -3%
COc1cc(C(=O)OCC(=O)Nc2ccc3c(c2)OC(F)(F)O3)ccc1OCc1c(C)noc1C | 60%
CCn1c(COc2ccccc2OC)nnc1SCC#N | -6%
ClC(Cl)C(Cl)Cl | -6%
O=C(NCc1ccc2c(c1)OCO2)C1CCCN1C(=O)Nc1cccc(F)c1 (stereo not drawn) | 1%
O=C(NC(=O)c1ccccc1)NC1(C(F)(F)F)OCCO1 | 5%
CC(C)NC(=O)Cn1cc(C#N)c2cc(Br)ccc21 | -4%
O=C(NCc1ccco1)c1ccc2c(c1)N(Cc1ccccc1)C(=O)CS2=O (stereo not drawn) | 2%
Fc1ccccc1N1CCN(C(c2cccs2)c2nnnn2CCc2ccccc2)CC1 (stereo not drawn) | -5%
O=C(CSc1nc2ccccc2[nH]1)N1CCN(c2ccc(F)cc2)CC1 | 1%
CCOC(=O)Cn1nnnc1C(CC)N(Cc1cc2c(C)cc(C)cc2[nH]c1=O)C1CCCC1 (stereo not drawn) | 10%
O=C(O)CCn1c(C2CCCCC2)nc2ccccc21 | 4%
COc1cc(S(=O)(=O)N2CCN3CCCC3C2)ccc1-n1cnnn1 (stereo not drawn) | -4%
O=C(COC(=O)c1ccc(S(=O)(=O)NCc2ccco2)cc1)NCCC1=CCCCC1 | ?
CCCCn1c(=O)c(-c2ccccc2)c(O)c2ccccc21 | -11%
CCCCC(CC)CNS(=O)(=O)c1ccc2c(c1)CCN2C(=O)CCC(=O)O (stereo not drawn) | 16%
CCOC(=O)c1[nH]c2c(c1C)C(=O)CC(c1ccc(OC)c(OC)c1)C2 (stereo not drawn) | 6%
COC(=O)[C@@]1(Cc2ccc(F)cc2)[C@H]2c3cc(C(=O)N(C)C)n(CCc4ccc(OC)c(Br)c4)c3C[C@H]2CN1C(=O)c1ccccc1 | 132%
Cc1cc(NC(=O)CSc2nc3ccccc3c(=O)n2Cc2ccc(F)cc2)no1 | -24%
COc1ccc(-c2nnc(CSc3nc4ccccc4c(=O)n3C)o2)cc1OC | 121%
CC(=O)OCCNc1cc(N2CCN(C)CC2)c2noc3c2c1C(=O)c1ccccc1-3 | 120%
CCOC(=O)C1=C(O)C(Nc2nccs2)(C(F)(F)F)N=C1C (stereo not drawn) | 7%
COc1ccc(S(=O)(=O)N2CCN(C(=O)CCC3CCCC3)CC2)cc1 | 56%
NC(=S)c1ccc(C(N)=S)o1 | -8%
O=[N+]([O-])c1ccc(CS(=O)Cc2ccccc2)cc1 (stereo not drawn) | 3%[5.75 µM]
Cc1cc(=O)n2nc(N3CCCC3C(=O)NCCCN3CC(C)CC(C)C3)sc2n1 (stereo not drawn) | -6%
CCN(CC)c1ccc(NC(=O)c2cc(OC)cc(OC)c2)c(C)c1 | 10%
COC(=O)c1ccc(S(=O)(=O)c2ccc(C(=O)OC)s2)s1 | -5%
O=C(COc1ccc(S(=O)(=O)N2CCCCC2)cc1)N1CCN(Cc2ccccc2)CC1 | 124%
COc1ccccc1C(=O)N1CCN(c2cccc(C(F)(F)F)c2)CC1 | 88%
Cc1cc2ccccc2c(=O)n1CC(=O)Nc1ccc2c(c1)OCO2 | 0%
COC(=O)[C@H](Cc1ccccc1)NC(=O)N1CC(C)OC(C)C1 (stereo partly drawn) | -1%
Cc1cc(NC(=O)CSc2nc3sc4c(c3c(=O)n2C)CCCC4)no1 | 13%
O=C(NCCN1C(=O)CSC1=O)c1ccccc1 | -15%
CC[C@@H]1OC(=O)[C@H](C)[C@H](O[C@@H]2C[C@](C)(OC)[C@H](O)[C@H](C)O2)[C@H](C)[C@H](O[C@@H]2O[C@@H](C)C[C@@H](N(C)C)[C@@H]2O)[C@](C)(O)C[C@H](C)C(=O)[C@H](C)[C@H](O)[C@]1(C)O | 14%[12.8 µM]
c1ccc(-c2nnc(Cn3c4ccccc4c4nc5ccccc5nc43)o2)cc1 | 14%
CC(=Nc1ccccc1)Nc1ccccc1 | -7%
CCSc1nnc(NC(=O)CN(C)S(=O)(=O)c2ccc(F)cc2)s1 | -22%
CC(C)(C)C(=O)CC(=O)Nc1ccc(Cl)c(N)c1 | 4%
O=C(Nc1ccccc1C(=O)NCc1ccco1)NC1CCCCC1 | -8%
CCc1ccc(OCCCC(=O)O)c(Br)c1 | 2%
CCOC(=O)C(NC(=O)c1cccnc1)(Nc1cccc(C)n1)C(F)(F)F (stereo not drawn) | 13%
COc1ccc(CNC(=O)C2CC(=O)N(c3ccc(OCC(=O)N4CCCCC4)cc3)C2)cc1 (stereo not drawn) | 47%
Cc1ccc2[nH]c(=O)c(CN(Cc3cccs3)Cc3nnnn3CC3CCCO3)cc2c1 (stereo not drawn) | 121%
CCN(CC)S(=O)(=O)c1cccc(C(=O)Nc2ccc(Cl)cn2)c1 | 2%
Cc1nnc(SCCn2c(N3CCC(C)CC3)nc3c2c(=O)n(C)c(=O)n3C)s1 | 50%
Cc1cc(=O)oc2cc(NC(=O)C3COc4ccccc4O3)ccc12 (stereo not drawn) | 10µM*
NC(CCl)=N[C@H]1CN2CCC1CC2 | 0%[5.75 µM]
COc1ccc(NC(=O)C2CCCCN2S(=O)(=O)c2ccc(F)cc2)cc1 (stereo not drawn) | 6%
CCCc1cc(-c2[nH]ncc2-c2ccc3c(c2)OCCCO3)c(O)cc1O | -7%
CCC(=O)NCCc1cc2cc(C)c(C)cc2[nH]c1=O | -7%
Cc1n[nH]c(=O)nc1NCc1ccccc1Cl | 5%
CCN(C(=O)c1coc(=O)c2ccccc12)c1cc(OC)ccc1OC | 13%
CC(=O)[C@@H](C)CCO[C@@]1(C)OCC[C@@H]1C | 4%[5.75 µM]
CCNC(=O)CC1SC(=Nc2ccccc2C)N(C)C1=O (stereo not drawn) | 9%
CCN(CC)C(=O)Oc1ccc2c(=O)c(-c3ccc(OC)cc3)coc2c1 | 41%
Cc1cccc(-c2noc(CCc3ccccc3)n2)c1 | -3%
Cc1cc(-c2ccccc2C(=O)NCc2ccccc2)on1 | 4%

Some of the entries so far, with each value named:
> CCCc1cc(-c2[nH]ncc2-c2ccc3c(c2)OCCCO3)c(O)cc1O
- AmpC nodet inh: -7%

> CCC(=O)NCCc1cc2cc(C)c(C)cc2[nH]c1=O
- AmpC nodet inh: -7%

> Cc1n[nH]c(=O)nc1NCc1ccccc1Cl
- AmpC nodet inh: 5%

> CCN(C(=O)c1coc(=O)c2ccccc12)c1cc(OC)ccc1OC
- AmpC nodet inh: 13%

Going on with the list:
structure	AmpC nodet inh
COc1cc2[nH]c(=O)n(CCC(=O)N3CCN(c4cccc(C)c4C)CC3)c(=O)c2cc1OC	116%
CC(C)C(=O)N1CCC(CN=Cc2c(O)n(C3CCCCC3)c(=O)n(C3CCCCC3)c2=O)CC1	147%
O=C(NC1CCCCC1NC(=O)c1cccs1)c1cccs1 (stereo not drawn)	-6%
O=C(c1csnn1)N1CCC[C@@]2(CCN(Cc3ccncc3)C2)C1	60%
CCCCn1c2nc3ccccc3nc2c2c(=O)n(CCC)cnc21	30%
CCOC(=O)c1ccccc1NC(=O)CN1CCC(n2nnc3cc(F)ccc32)CC1	51%
Nn1c(SCc2nc3ccccc3[nH]2)nnc1-c1cccnc1	-7%
O=C(COC(=O)c1cc(-c2ccco2)nc2ccccc12)NCc1ccc2c(c1)OCO2	13µM*
Oc1cccc(Nc2nc(NCC3CCCO3)c3ccccc3n2)c1 (stereo not drawn)	10µM*
CCOC(=O)CC(=O)Nc1nnc(C(C)C)s1	-8%
CCC(c1nnc(SCC(=O)NCCc2ccc(Cl)cc2Cl)o1)N(C)C (stereo not drawn)	68%
Cc1onc(-c2ccccc2)c1C(=O)n1nnc2ccccc21	3%
N#CC1=C(N)N(c2ccc(Oc3ccccc3)cc2)C(=O)C1	-2%
O=C(CSc1nnc(Cc2cccs2)n1C1CCCCC1)N1CCCc2ccccc21	71%
CC1(C)CC(=O)c2cnc(N3CCN(c4ccccc4)CC3)nc2C1	30%
CCOc1ccc(N2C(=O)CSC23CCCCC3)cc1	46%
O=C(Oc1ccccc1)N1CCC[C@@]2(CCN(c3ccncc3)C2)C1	3%
CN(C)Cc1ccccc1-c1cncnc1Nc1ccncc1	-8%
C[C@@H](N)Cn1ccc2cc(F)c(Cl)cc21	15%
Cc1nc(-c2ccccc2)nc2[nH]c(C(C)C)cc(=O)c12	8%
CCSCc1nnc(SCC(=O)Nc2cccc(SC)c2)n1C	15%
Cc1ccc(S(=O)(=O)C2(C(=O)N3CCCC(C)C3)CC2)cc1 (stereo not drawn)	22%
Cc1ncc(C[n+]2csc(CCO)c2C)c(N)n1	-7%[12.8 µM]
Cc1cc(C)nc(/N=C2\NC(=O)CC(C(=O)O)N2CCc2c[nH]c3ccccc23)n1 (stereo not drawn)	58%
CCOC(=O)c1ccc(N2C(=O)C(O)=C(C(C)=O)C2c2ccc(O)c(OC)c2)cc1 (stereo not drawn)	-10%
O=C(CCCn1c(=O)oc2ccccc21)N1CCc2ccccc2C1	25%
CCCC1(C(=O)O)NC(c2ccccc2O)C2C(=O)N(Cc3ccccc3)C(=O)C21 (stereo not drawn)	3%
CC1(C)S[C@@H]2[C@H](NC(=O)[C@H](C(=O)O)c3ccsc3)C(=O)N2[C@H]1C(=O)O	4µM*
CCC(C)NC(=O)CC(NS(=O)(=O)c1ccc(Cl)cc1)c1ccco1 (stereo not drawn)	5%
COc1cc2c(cc1NC(=O)CCCN1C(=O)CCC1=O)oc1ccccc12	124%

Given field by field: four of the compounds above.
SMILES: CCCC1(C(=O)O)NC(c2ccccc2O)C2C(=O)N(Cc3ccccc3)C(=O)C21 (stereo not drawn)
  AmpC nodet inh: 3%

SMILES: CC1(C)S[C@@H]2[C@H](NC(=O)[C@H](C(=O)O)c3ccsc3)C(=O)N2[C@H]1C(=O)O
  AmpC nodet inh: 4µM*

SMILES: Cc1ccc(S(=O)(=O)C2(C(=O)N3CCCC(C)C3)CC2)cc1 (stereo not drawn)
  AmpC nodet inh: 22%

SMILES: Cc1nc(-c2ccccc2)nc2[nH]c(C(C)C)cc(=O)c12
  AmpC nodet inh: 8%

Other structures:
structure	AmpC nodet inh
CCc1cccc2c3c([nH]c12)[C@@](CC)(CC(=O)O)OCC3	-1%[12.8 µM]
COCCc1nnc(NC(=O)Cc2ccccc2)s1	-10%
CCSc1nnc(Cn2c(=O)sc3ccccc32)n1-c1ccc(OC)cc1	100%
Cc1cn(COC/C=C/c2ccccc2)c(=O)[nH]c1=O	3%
[N-]=[N+]=N[C@@H]1[C@H](O)[C@H](CO)O[C@@H]1n1cnc2c(N)ncnc21	4%[5.75 µM]
C[C@H](c1ccccc1)N1CCN([C@@H](C)c2ccccc2)CC1	8%[5.75 µM]
O=C(COC(=O)c1cccs1)NCC1CCCO1 (stereo not drawn)	-5%
CCN(CC)S(=O)(=O)c1ccc(-c2nnc(SCC(=O)N3c4ccccc4CC3C)o2)cc1 (stereo not drawn)	45%
COCCN(CCOC)C(=O)c1sc2nc(-c3ccccc3)cn2c1C	55%
C=CCn1c(-c2cccc(Cl)c2)n[nH]c1=S	-7%
COc1ccc(NC(=O)C2CCCN(S(=O)(=O)c3c(C)n[nH]c3C)C2)c(OC)c1 (stereo not drawn)	24%
Cc1ccccc1CSc1nc2c(c(=O)[nH]1)CCC2	-18%
COc1ccc(N2CCN(Cc3cc(=O)oc4ccc(Cl)cc34)CC2)cc1	0%
COc1ccc(-c2n[nH]c(C(F)(F)F)c2-c2cc3ccccc3o2)c(O)c1	-2%
O=[N+]([O-])c1cccc(O)c1	-2%
CCOC(=O)CNc1nc(OCC#N)nc(N2CCOCC2)n1	13%
CCCc1cc(=O)[nH]c(SCC)n1	-11%
CN1CCN(CCCNC(=O)c2ccc(CS(=O)(=O)c3ccc(Br)cc3)o2)CC1	22%
O=C(CCn1c(=O)oc2ccccc21)Nc1cccc(Cl)c1	4%
Cc1cc(NC(=O)CSc2nc(C3CCCCC3)nc3ccccc23)no1	-2%
Cc1ccc(NC(=O)COC(=O)Cn2c(C)csc2=O)cc1	-7%
Cc1cc(C)cc(OCC(=O)NCCN2CCOCC2)c1	6%
CCCCOC(=O)n1ccc(C(=O)Nc2ccccc2OC)n1	23%
Cc1cccc(-n2c(O)c(C=Nc3c(C)n(C)n(-c4ccccc4)c3=O)c3ccccc3c2=O)n1	100%
CS(=O)(=O)N1CCC2(CCCN(Cc3ccncc3)C2)CC1	8%
CCOC(=O)C1(CCSC)NC(c2ccco2)C2C(=O)N(C)C(=O)C21 (stereo not drawn)	12%
Cc1cc(C)n(-c2nnc(C)n2NS(=O)(=O)c2ccc(F)cc2)n1	-6%
O=C(NCC(c1cccs1)N1CCOCC1)c1ccc(Cl)s1 (stereo not drawn)	21%
Cc1cccc(N(CC(=O)Nc2c(C)n(C)n(-c3ccccc3)c2=O)S(C)(=O)=O)c1C	25%
CCOC(=O)c1sc(NC(=O)c2cccs2)cc1C	-20%
O=S(=O)(c1ccc(N2CCN(S(=O)(=O)c3ccc4c(c3)OCCO4)CC2)nc1)N1CCCC1	86%
COc1ncc2nc(C)c(=O)n(C)c2n1	-5%
C=CCn1c(SCc2ccc(Cl)cc2)nc2c1c(=O)[nH]c(=O)n2C	18%

Some of the compounds tested; rates above refer to the full screens.
